# Source: PubChem
# E coli growth – inhibitors of Escherichia coli growth; OD600, 23 h; hits give low values; OD600 absorbance (concentration not given with the values); 330,000 tested, 0.21% active;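 active = OD600 absorbance below the run mean of sample wells minus 3.6 SD, in any replicate, cut at about 0.56 in these data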;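 note: stock transfer was 300 nL into about 60 µL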
# UCH37 inh – human UCH37 deubiquitinating enzyme inhibition; Q9Y5K5; purified proteasome/UCH37, Ub-AMC cleavage fluorescence; inhibition, % (concentration not given with the values); 330,000 tested, 0.33% active;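 active = mean of two replicates above 20%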;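 note: 0% = compound-free wells with enzyme and 100% = wells lacking proteasome; stock transfer was 100 nL into about 20 µL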
# Target sequence (Q9Y5K5 whole entry, looked up): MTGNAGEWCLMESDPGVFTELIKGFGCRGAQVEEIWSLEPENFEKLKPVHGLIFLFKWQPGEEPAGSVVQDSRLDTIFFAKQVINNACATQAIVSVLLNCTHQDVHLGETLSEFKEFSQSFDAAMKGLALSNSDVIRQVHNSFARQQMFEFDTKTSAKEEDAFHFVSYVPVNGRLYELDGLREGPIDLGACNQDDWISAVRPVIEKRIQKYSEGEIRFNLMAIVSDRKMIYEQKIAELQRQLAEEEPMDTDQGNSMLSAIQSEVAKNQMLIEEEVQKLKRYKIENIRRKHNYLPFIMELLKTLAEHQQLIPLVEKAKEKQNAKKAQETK
#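 Material: human UCH37 enzyme supplied as purified proteasome complex / Amount: 0.15 nM proteasome as dispensed / Buffer or medium: pH 7.4 Tris-HCl (50 mM) with ovalbumin, ATP-MgCl2, DTT / Times: preincubation 30 min, reaction 25 min, room temperature / Technique: AMC fluorescence from Ub-AMC cleavage, excitation 355 nm, emission 460 nm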
# A1 inh – inhibitors of the anti-apoptotic protein A1, read as caspase activation | 330,000 tested, 0.066% active | MEF A1-2A-BIM cells, Caspase-Glo 3/7 luminescence, 3 h; percent of clofoctol response, vehicle zero | caspase activation, % (concentration not given with the values);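 active = over half of replicate activation scores above 10%, or exactly half above 10 with the replicate mean above 10; inconclusive = replicate mean below 10 yet half the replicates above 10; inactive = over half of replicates below 10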;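 note: wells of about 30 µL received 50 nL stock; many hits fall short of the cut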
# HNF4A DNA FP – change in binding of human HNF4 alpha to DNA. activity change, % at 10 µM. HNF4a-FITC DNA binding, fluorescence polarization, 1 h. 360,000 tested, 0.3% active; in the data active = activity change above about 30%, passing the limit was not always enough;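 note: controls were the assay level and a saturating level of protein; the project sought stronger binding though the title names inhibitors; some compounds called inactive have numbers as strong as hits; positive values seem to mean higher polarization but the record does not say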
# Target sequence (P41235 whole entry, looked up): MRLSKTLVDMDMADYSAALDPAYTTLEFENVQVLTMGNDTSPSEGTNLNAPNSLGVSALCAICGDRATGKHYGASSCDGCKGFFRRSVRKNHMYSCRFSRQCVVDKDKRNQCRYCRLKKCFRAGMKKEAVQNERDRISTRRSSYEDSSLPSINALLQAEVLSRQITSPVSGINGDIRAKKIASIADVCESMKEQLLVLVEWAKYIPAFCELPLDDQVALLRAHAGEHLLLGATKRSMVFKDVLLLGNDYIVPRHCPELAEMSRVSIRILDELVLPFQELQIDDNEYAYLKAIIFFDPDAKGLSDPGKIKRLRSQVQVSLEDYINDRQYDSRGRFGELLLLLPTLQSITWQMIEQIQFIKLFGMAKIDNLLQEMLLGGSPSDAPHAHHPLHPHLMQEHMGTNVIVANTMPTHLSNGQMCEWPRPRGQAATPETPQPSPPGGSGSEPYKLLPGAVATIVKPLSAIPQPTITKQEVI
# B2AR ag – human beta-2 adrenergic receptor agonism by FAP. Am2.2-beta2AR cells, FAP receptor internalization, flow cytometry; reference of the scale not given here. response, % (test concentration not listed). 340,000 tested, 0.43% active;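 active = response above a set limit, near 3 SD of response in nonfluorescent compounds, cut at about 42% in these data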;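 note: stock transfer was 100 nL into about 11 µL; a reference agonist was the positive control; negative values mostly stem from fluorescent compounds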
# LANA-H2A inh – blocks KSHV LANA binding to histone H2A/H2B; Q9QR71; cell-free LANA-H2A/H2B peptide, fluorescence polarization; inhibition, % (test concentration not listed); 320,000 tested, 0.6% active; AID 2629; in the data active = inhibition mostly above about 10%, no sharp cut-off; inactive = mostly below about 6.7%;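 note: stock transfer was 7.5 nL into about 10 µL; 0% = median of vehicle wells and 100% = median of positive control wells; one replicate is shown; the record names a cut of 25% in any replicate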
# Vif TR-FRET – inhibitors of Vif binding to APOBEC3G peptide, primary screen, biochemical, TR-FRET, GST-Vif 1-94, biotin-A3G peptide, dose response retest (AID 1117319). 260,000 tested, 0.57% active. TR-FRET GST-Vif / biotin-A3G peptide binding; higher % means a stronger effect; test concentration not given here; strong numbers were not always called active. inhibition, %, or IC50 in µM where a hit was titrated;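 active = above the screen mean plus three standard deviations and confirmed in dose response; inconclusive = results disagree or hit not tested in dose response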;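 note: Vif residues 1-94 fused to GST binding biotinylated APOBEC3G peptide 110-148; 0% = full assay without inhibitor and 100% = GST in place of GST-Vif; retest series ran down from 100 µM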
# * hit, by the source's call; i = inactive; ? = inconclusive; · = no result given; & = joins results of further samples.
SMILES,E coli growth,UCH37 inh,A1 inh,HNF4A DNA FP,B2AR ag,LANA-H2A inh,Vif TR-FRET
CCC(C)c1c(NS(=O)(=O)c2ccc(C)cc2)o[nH]c1=O (stereo unspecified),0.672,0.3,·,5.3,-0.7,·,-5.0%
CCC(C)Sc1nnc(Cc2cc(=O)[nH]c(=O)[nH]2)n1-c1ccc(OC)cc1 (stereo unspecified),0.757,3.3,0.3,-2.3,1.0,2.6,2.8%
CN(CCCC(=O)N1CCCC(C(N)=O)C1)S(=O)(=O)c1ccc(F)cc1 (stereo unspecified),0.697,1.0,0.4,-1.3,-2.8,5.5,·
Cc1cc(NC(=O)CSc2nnc(COc3cccc(C)c3C)n2Cc2ccco2)no1,0.677,0.4,-0.6,-5.5,2.3,3.0,-1.6%&3.1%
COc1cc(CCCN2CCNC[C@@H]2CC2CCCCC2)cc(OC)c1OC,·,5.3,0.1,0.4,-4.0,-3.4,·
Nc1ccc2c(c1)C(O)c1ccc(Cl)cc1-2 (stereo unspecified),0.606,2.4,·,3.4,8.0,·,-0.1%
COc1ccc2[nH]c(O)c(N=O)c2c1,0.701,1.2,0.1,1.8,3.1,2.4,4.8%
CC(C)CCNc1ncnc2c1cnn2Cc1ccccc1Cl,0.675,3.1,-0.3,0.3,26.6,0.2,3.9%
COc1ccccc1N1CCN(c2ncnc3sc(C(=O)NCC4CCCO4)c(C)c23)CC1 (stereo unspecified),0.682,3.1,0.1,-1.5,1.1,-0.3,·
COc1cc([N+](=O)[O-])cc2cc(C(=O)N3CCN=C3c3ccccc3)c(=O)oc12,0.702,4.9,0.6,4.8,5.0,7.1,0.7%
Cc1cc(C)c(OCC(=O)Nc2cccc(NC(=O)c3ccco3)c2)c(Br)c1,0.775,5.1,0.1,-4.3,-5.9,1.7,?
CCn1c(C)c(C(C)=O)c(N2CCC(C(N)=O)CC2)nc1=S,0.613,2.2,-1.0,-0.8,3.7,1.0,4.1%
S=C(c1ccc(-c2ccc(Br)cc2)o1)N1CCOCC1,0.677,2.9,0.2,0.2,-4.0,0.0,18.5%
Clc1nc2c(ccc3ccccc32)[nH]1,0.605,5.9,-1.0,0.5,-4.2,-3.9,0.5%
Cc1ccc(CNC(=O)COC(=O)c2cccnc2Cl)cc1,0.633,2.5,-2.0,-2.8,2.5,-0.2,-4.3%
Cc1ccc(NC(=O)n2ccc(-c3ccc(-n4ccnc4)cc3)n2)cc1,0.625,0.6,·,4.2,0.5,·,-3.5%
CCn1c(SCC(=O)Nc2ccccc2)nc2c1c(=O)n(C)c(=O)n2C,0.67,6.5,0.5,3.4,-10.7,-0.7,-4.3%
O=C(Oc1ccc2ccc(=O)oc2c1)c1ccc([N+](=O)[O-])cc1,0.708,i,1.1,4.4,-5.8,0.7,·
COc1cccc(CNS(=O)(=O)c2ccc(S(=O)(=O)N3CCCC3)cc2)c1,0.715,-1.1,0.4,-0.5,-1.3,-0.1,-3.4%
COc1ccc(Cl)cc1-c1nc(N)nc(NC2CCCCC2)n1,0.721,2.7,-0.1,0.8,4.8,-4.3,-5.8%
COc1ccc(N2CCN(S(=O)(=O)c3ccc(OC)c(C(=O)N4CCCC4)c3)CC2)cc1,0.714,4.7,0.7,2.4,-2.1,-6.0,·
Cn1nc(-c2ccc(C(=O)N3CCN(CCO)CC3)cc2)c2ccccc2c1=O,0.683,4.0,0.1,-2.5,2.1,-3.6,-7.0%
CCC(CO)Oc1cc(NCc2cccnc2)c2ncn(C(C)C)c2c1 (stereo unspecified),0.693,0.8,-1.0,-5.4,-2.2,0.8,·
Cc1ccc(S(=O)(=O)N2CCOCC2)cc1NS(=O)(=O)c1ccc(F)c(F)c1,0.68,1.9,-0.6,1.9,0.8,2.2,-13.2%
Cc1ccc(CNC(=O)CSc2ncc(C(=O)Nc3ccccc3)c(=O)n2C)cc1,0.666,-141.2,-5.7,1.9,-5.5,-0.2,-5.1%
Cc1ccc(CNC(=O)c2ccccc2NS(C)(=O)=O)cc1,0.716,-26.4,1.6,-5.1,-3.3,-2.5,0.8%
Cc1nn(-c2ccccc2)c(C)c1C(=O)NCc1ccccc1F,0.662,1.7,0.7,-1.9,-4.8,-0.6,·
COc1ccc(C(=O)Nn2c(C)nc3ccccc3c2=O)c(OC)c1,0.704,3.1,0.4,3.4,-6.9,-2.3,·
Nn1c(SCC(=O)Nc2ccc(F)cc2F)nnc1-c1cccnc1,0.728,1.4,0.5,2.0,-10.4,-2.2,1.2%
CCO[C@@H]1OC(C(=O)N2CCN(Cc3ccccc3)CC2)=C[C@H](c2ccccc2)[C@H]1CCCO,·,4.4,-0.8,-1.6,17.7,3.8,-8.8%
Cc1ccc(N2CC(C(=O)Nc3nnc(SCCC4OCCO4)s3)CC2=O)cc1 (stereo unspecified),0.75,-1.9,-0.9,6.2,5.8,2.2,-1.9%
O=C(C1CCC(=O)N(C2CCCC2)C1)N1CCN(Cc2cccc(Cl)c2)CC1 (stereo unspecified),0.715,4.7,0.3,0.4,7.2,1.3,·
O=S(=O)(NC1CC1)c1ccc2c3c(cccc13)CC2,0.685,-1.3,-0.2,1.0,2.5,-8.7,-14.5%
CCOC(=O)N1CCN(C(=O)CS(=O)(=O)c2cn(Cc3ccc(Cl)cc3)c3ccccc23)CC1,0.758,3.9,-0.3,-4.9,3.6,-3.5,-1.9%
OCc1ncccc1O,0.648,1.5,0.4,0.0,-11.4,-2.5,·
O=C(COC(=O)c1ccc(S(=O)(=O)C(F)F)cc1)Nc1cccnc1Cl,0.652,2.7,-1.3,-3.3,1.7,2.2,10.1%
C#CCOCCOCCOCCNc1nc(N2CCOCC2)nc(N2CCN(C(=O)CCCCCCCCCCNC(=O)[C@H](CO)n3cc(CCCCCN)nn3)CC2)n1,·,1.8,0.2,-1.9,8.8,-2.7,·
Cc1ccc(C(=O)CSc2ncnc3sc4c(c23)CCC(C)C4)cc1 (stereo unspecified),0.746,-1.1,·,2.2,-24.2,·,-14.4%
CC(C(=O)O)n1c(-c2ccn[nH]2)n[nH]c1=S (stereo unspecified),0.709,4.2,0.0,-0.1,0.8,13.3,?
O=C(COC(=O)Cc1c(F)cccc1Cl)Nc1ccc2[nH]c(=O)[nH]c2c1,0.703,-0.2,0.4,-5.3,0.4,4.5,-1.6%
COc1ccc(C(=O)OCC(=O)NCCN2C(=O)CSC2=O)cc1,0.668,2.9,-0.3,-1.9,-11.2,3.1,-2.5%
CCN(CC)S(=O)(=O)c1ccc(N2CCCC2)c(NC(=O)C2=COCCO2)c1,0.686,5.5,0.9,-1.4,-6.9,2.8,0.6%
O=C(/C=C/c1ccccc1)c1ccccc1,·,5.6,-2.2,-0.4,11.9,1.3,26.8%
COc1ccc(NS(=O)(=O)c2cc(NC(=O)C3CCCO3)ccc2N2CCCCC2)cc1 (stereo unspecified),0.688,0.8,-0.3,2.8,-4.3,-2.3,2.1%
Cc1cc(S(=O)(=O)N(Cc2ccccc2)Cc2ccc(N(C)C)cc2)ccc1-n1cnnn1,0.721,1.7,0.1,0.2,2.8,9.4,13.4%
C/C(=C/C(=O)NCc1ccccc1)C(=O)O,0.662,3.2,-0.9,-1.1,5.0,-1.9,68.4%
O=[N+]([O-])c1cccc(-c2csc(N/N=C/c3cccc(O)c3)n2)c1,·,·,-0.4,-5.8,17.4,-8.0,-5.3%
Cc1ccc(C)c(C(=O)COC(=O)CCN2C(=O)C3C4CCC(C4)C3C2=O)c1 (stereo unspecified),0.658,2.5,·,3.3,5.7,·,·
Cc1ccccc1S(=O)(=O)Cc1ccc(C(=O)NCCN(CC(C)C)CC(C)C)o1,0.686,2.3,-0.2,2.3,-10.4,-2.8,-6.3%
O=S(=O)(NCC(c1ccc2c(c1)OCO2)N1CCN(c2ccccc2)CC1)c1ccccc1 (stereo unspecified),0.715,4.9,0.3,-0.9,-0.8,-1.3,-9.7%
Oc1ccc(C2C(c3ccccc3)=NN=C(c3ccccc3F)N2O)c(O)c1 (stereo unspecified),0.668,6.0,-0.2,0.2,-1.6,-2.9,14.2%
CCCCOCCCNC(=O)c1ccc([N+](=O)[O-])c(C)c1,0.711,5.2,0.2,0.4,0.4,1.7,8.1%
Cc1ccc2[nH]c(=O)c3cc(C(=O)NCC4CCCO4)sc3c2c1 (stereo unspecified),0.698,-347.4,0.5,2.1,-1.8,5.3,?
Cc1ccc(S(=O)(=O)N(CC(=O)NCCC2=CCCCC2)Cc2ccccc2)cc1,0.718,11.1,-1.4,-3.0,-9.7,1.0,?
O=C(c1cccs1)N1CCn2c1nc1ccccc12,0.734,1.7,-5.8,0.7,-20.2,0.5,4.1%
CCN(CC)c1ccc(/C=N/NC(=O)c2ccoc2C)c(O)c1,·,·,-7.9,2.0,15.4,4.7,-3.5%
CCc1cc2c(NCc3ccccc3)nc(C)nc2s1,0.644,-0.4,0.1,3.8,3.0,2.9,·
Cc1cc(NC(=O)c2cc(-c3cccnc3)nc3c(C)c(C)ccc23)no1,0.735,-25.3,0.0,1.6,-0.6,-2.8,-8.9%
Cc1ccccc1NC(=O)CS(=O)(=O)c1cn(CC(=O)N2CCOCC2)c2ccccc12,0.681,1.7,0.4,1.9,-1.8,1.3,?
COc1ccc(S(=O)(=O)Nc2cc(C)nn2-c2ccccc2)cc1,0.692,5.3,-0.3,0.2,-2.9,2.4,3.8%
# Next results:
SMILES,E coli growth,UCH37 inh,A1 inh,HNF4A DNA FP,B2AR ag,LANA-H2A inh,Vif TR-FRET
C=CCNc1nc2ccccc2nc1NS(=O)(=O)c1ccc(Cl)cc1,0.675,-46.0,-0.4,2.8,8.7,2.0,-9.8%
CC(NS(=O)(=O)c1ccc(N)cc1)C1CC2CCC1C2 (stereo unspecified),0.671,5.4,0.3,-5.0,-2.9,-1.7,·
C/C(=N\NC(=O)C(N)=O)c1ccc(Br)cc1,·,·,1.2,2.3,7.1,-3.7,11.0%
COc1cc(NC(=O)c2sc3ncn(CC(=O)N4CCCCC4)c(=O)c3c2C)cc(OC)c1OC,0.685,7.2,-1.4,3.5,-3.4,-2.2,·
C=CCNC(=S)/N=c1\sccn1C,·,·,-0.4,-1.7,5.7,3.3,-1.6%
CC(C)(C)[C@H]1CCC(=O)N([C@H](CN=[N+]=[N-])Cc2ccccc2)CC1,·,2.0,0.6,-0.3,-2.2,-3.0,·
CCN(CC)c1ccc(S(=O)(=O)N2CCOCC2)cc1NC(=O)CSc1ccccc1,0.689,1.3,0.8,2.5,4.9,7.2,-0.6%
COc1ccc(C2(CO)OC(CO)C(O)C2O)cc1 (stereo unspecified),·,·,·,1.6,3.8,·,-0.2%
CC(=O)c1ccc(N2C(=NC(=O)C3CCCCC3)SC3CS(=O)(=O)CC32)cc1 (stereo unspecified),0.669,0.4,-0.6,3.0,-7.0,2.3,-6.3%
CN(C)CCCNC(=S)N(CCCO)Cc1cc2cc3c(cc2[nH]c1=O)OCO3,0.715,-120.7,0.6,1.3,-6.5,-3.1,·
CC(=O)N1CCc2c(sc(NC(=O)CN3C(=O)CCC3=O)c2C(N)=O)C1,0.719,-7.0,0.1,1.1,14.2,4.0,?
COc1ccccc1NC(=O)c1ccccc1Oc1ccccc1,0.698,-0.8,0.5,-2.3,-10.6,0.2,·
C=CCNC(=S)NCCO,0.676,4.9,0.3,1.1,1.2,-1.5,-4.6%
Cc1nc2ccc(NC(=O)c3cccnc3)cc2s1,0.69,4.6,-0.7,10.7,-3.5,-8.0,·
O=C(Nc1nnc2n1CCS2)c1ccco1,·,·,-0.7,-0.7,-94.8,2.6,·
CC1(C)Cc2c(sc(NC(=O)c3ccc4ncsc4c3)c2C(N)=O)C(C)(C)N1,0.689,-0.9,0.2,0.6,16.0,-0.7,-38.8%
